Rango dissoc inh: inhibitors of RanGTP-induced Rango-importin beta complex dissociation; Potency, µM (highest dose often 46.1 µM), for inactives: top-dose activity change, negative = inhibition; 340,000 tested, 0.071% active; AID 540253; Biochemical FRET Rango-importin beta, RanGTP-induced dissociation; active means falling FRET ratio curve, often poorly fitted, with flat reads before Ran was added; inconclusive means other falling curves, or compound fluorescence or quenching; inactive means flat or rising ratio curve;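 note: potency is the fitted concentration of half-maximal effect; % of control where 0% means no effect; nearly all actives have a fitted effect of over 45% in size; -100% = wells without RanGTP and RCC1; the record marks most hits as doubtful in a second field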
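Recombinant Rango FRET biosensor (EYFP–snurportin 1 IBB–cerulean CFP10) at 0.1 uM premixed with 0.25 uM importin beta in PBS, 1 mM DTT, 0.02% Tween-20, 0.1% BSA. Compound added 5 min; RanGTP-RCC1 (0.6 uM Ran, 2 mM GTP, 0.2 uM RCC1) then triggers release, read at 45 min.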
GLA inh pH 4.5: inhibitors of human alpha-galactosidase A at pH 4.5. P06280. purified enzyme, 4-MU-alpha-Gal fluorescence, pH 4.5. activity change, negative = inhibition, % at 105 µM. 230,000 tested, under 10 active. AID 1467; inconclusive = small, poorly fitted or top-dose-only inhibition, or a rising curve; inactive = flat fitted curve, though single readings scatter; no compound was filed as active;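 note: 0% = full activity with enzyme and -100% = basal without enzyme; dose as in the result columns while the protocol names 77 µM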
Rango complex inh: inhibitors of Rango-importin beta complex formation | Rango CFP/YFP FRET sensor + importin beta, 45 min | 340,000 tested, 0.031% active | Q14974 | Potency, µM (doses to about 92.2 µM), for inactives: at the highest dose inhibition of complex formation; active = rising FRET ratio curve, often small or poorly fitted; inconclusive = mostly compound fluorescence or quenching in the first reads; inactive = flat curves in all reads;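 note: potency is the fitted concentration of half-maximal effect; 0% = DMSO wells and 100% = buffer wells lacking importin beta; nearly all actives have a fitted effect of over 15% in size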
Target sequence (Q14974 whole entry, looked up): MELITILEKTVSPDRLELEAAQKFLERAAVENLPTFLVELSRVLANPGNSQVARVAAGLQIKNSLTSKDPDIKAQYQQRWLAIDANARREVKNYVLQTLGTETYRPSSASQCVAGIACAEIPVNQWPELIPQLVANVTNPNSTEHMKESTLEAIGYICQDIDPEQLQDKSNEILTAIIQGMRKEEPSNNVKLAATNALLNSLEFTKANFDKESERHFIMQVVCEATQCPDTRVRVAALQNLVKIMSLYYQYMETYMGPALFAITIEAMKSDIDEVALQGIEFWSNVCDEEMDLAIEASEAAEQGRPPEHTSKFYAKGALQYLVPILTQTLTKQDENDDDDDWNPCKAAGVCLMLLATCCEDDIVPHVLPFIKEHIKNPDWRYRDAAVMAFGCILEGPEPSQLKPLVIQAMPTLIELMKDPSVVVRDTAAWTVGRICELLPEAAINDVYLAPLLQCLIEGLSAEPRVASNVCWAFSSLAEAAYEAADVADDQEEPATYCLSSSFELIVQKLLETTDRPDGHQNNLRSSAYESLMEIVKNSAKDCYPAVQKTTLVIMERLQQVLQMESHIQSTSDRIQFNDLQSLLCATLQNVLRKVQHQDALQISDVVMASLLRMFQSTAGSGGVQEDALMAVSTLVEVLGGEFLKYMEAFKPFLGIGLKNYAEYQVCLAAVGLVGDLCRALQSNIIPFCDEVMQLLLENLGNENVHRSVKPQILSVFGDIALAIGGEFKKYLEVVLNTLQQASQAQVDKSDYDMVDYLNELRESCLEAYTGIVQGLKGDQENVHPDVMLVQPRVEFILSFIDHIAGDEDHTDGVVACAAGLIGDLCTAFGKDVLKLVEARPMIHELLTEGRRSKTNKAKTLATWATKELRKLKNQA
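Inhibition scored from the CFP 486 nm/YFP 530 nm FRET ratio 45 min after adding 0.125 microM importin beta to 50 nM Rango biosensor preincubated 5 min with compound (room temperature, PBS with DTT, Tween-20, BSA). No-importin wells as positive control.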
miR-21 FLuc: raises the signal of a miR-21 reporter. HeLa miR-21 FLuc reporter, luciferase, 48 h. 340,000 tested, under 10 active. Potency, µM (top dose mostly 38.3 µM), inactives show top-dose reporter change, positive = more light; active = well fitted rising curve with a large enough effect; inconclusive = small, poorly fitted or top-dose-only effect; inactive = no such curve, though single readings can be large or run the other way;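 note: % of control where 0% means no effect; miR-21 action dims this reporter so a rising signal means less miR-21 action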
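HeLa cells endogenously expressing miR-21, stably carrying CMV-driven firefly luciferase with a downstream miR-21 binding site, 2000 cells/well. Titrations up to approximately 40 uM, 48 hours; luciferase luminescence read.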
Numbers without * were called inactive; ? = inconclusive; · = no result given; & = joins results of further samples; [ ] = another dose, or the depositor's remark.

The line under a structure holds: Rango dissoc inh	GLA inh pH 4.5	Rango complex inh	miR-21 FLuc
O=C1Nc2ccccc2C(O)(C(=O)N2CCCCC2)N1c1ccccc1 (stereo not given)
  3%	14	-4.3%	-2%
Cc1ccc(/C=N/Nc2cc(C)nc(N3CCOCC3)n2)cc1
  -5%	-9	5.6%	-2%
O=C(CCc1ccc(S(=O)(=O)N2CCOCC2)cc1)Nc1ccc(F)c(F)c1F
  -14%	·	-2.1%	·
Cc1ccc(CN2CCN(/N=C\c3cccc([N+](=O)[O-])c3)CC2)cc1
  -7%	-11	-1.5%	5%
CCN(CC(=O)Nc1ccc(NC(C)=O)cc1)C(=O)C1CC(=O)N(CCc2ccc(OC)c(OC)c2)C1 (stereo not given)
  9%	·	0.2%	·
Cc1cccc2cc(/C=N/Nc3ccc(C(=O)O)cc3)c(Cl)nc12
  ?	-12	?	-105%
Cc1ccnc(NC(=O)Cn2ccc([N+](=O)[O-])n2)c1
  -4%	2	-0.4%	0%
Cc1sc2ncnc(NCCN3CCOCC3)c2c1C
  1%	3	-0.1%	13%
Cc1ccc(-c2cc(C(=O)N3CCCC3)c3ccccc3n2)s1
  13%	·	-2.4%	-40%
C=CCC(=O)NC1CC(C)(C)Cc2c1cnn2-c1ccc(C)cc1 (stereo not given)
  -1%	·	4.5%	0%
Cc1ccccc1N1CCN(Cc2ccc([N+](=O)[O-])o2)CC1
  -2%	·	-3.4%	0%
O=C1C=C(NCc2ccccc2)C2(CCCCC2)O1
  3%	-9	4.0%	1%
Cc1ccc(C)c(OC(=O)CN2C(=O)c3ccccc3C2=O)c1
  -1%	·	-6.4%	-3%
O=C(NC(=S)N1CCOCC1)c1ccc([N+](=O)[O-])cc1
  -1%	-4	-2.8%	-1%
CS(=O)(=O)N1CCCC(C(=O)Nc2ccc3c(c2)OCCO3)C1 (stereo not given)
  19%	5[21.1 µM]	-0.3%	-10%
COc1ccc(/C=C/S(=O)(=O)NCc2ccccc2)cc1OC
  8%	-19	6.9%	-7%
O=C(NCC1CCCO1)C1CCCN(S(=O)(=O)c2cccc3nsnc23)C1 (stereo not given)
  10%	-5	?	-5%
O=C(NCc1ccccc1Cl)c1cc(C(=O)C2CC2)c[nH]1
  -3%	·	?	-1%
CC(C)(C)c1cc(CCC(=O)N2CCNCC2)c(C(C)(C)C)cc1O
  -2%	-14	3.1%	-6%
CC(/C=N/NC(=O)c1ccncc1)=C\c1ccc(C(C)C)cc1
  -13%	3	?	-34%
c1ccc(NC2=NCCN2CCC2CCCCC2)cc1
  5%	·	-0.4%	1%
Cc1cc(C)n2nc(C(=O)NCc3ccco3)nc2n1
  5%	·	-3.2%	·
COc1cccc(CNS(=O)(=O)c2cc(CN3C(=O)c4cccnc4C3=O)ccc2OC)c1
  -5%	·	-0.1%	2%
O=C(NCCCN1CCOCC1)c1cc(-c2ccc(F)cc2)nc2ccccc12
  0%	·	-2.0%	·
Cc1cccc(N2CCN(C(=O)c3nn(C)c4c3CS(=O)(=O)c3ccccc3-4)CC2)c1C
  -19%	·	2.1%	0%&1%
O=C(c1ccc(F)cc1)c1ccc(OCC(=O)N2CCOCC2)cc1
  -8%	·	-3.3%	·
COC(=O)c1ccc(CSc2ccc3nnc(-c4ccc(OC)c(OC)c4)n3n2)o1
  13%	·	5.4%	·
COc1cc(/C=c2\sc3nc(-c4ccncc4)nn3c2=O)ccc1OC(C)=O
  ·	3	·	-2%
CCCn1nnnc1NCc1cccc(OC)c1
  5%	·	-4.0%	0%
CCc1nc2sccc2c(=O)[nH]1
  -6%	5	0.4%	0%

The line under a structure holds: Rango dissoc inh	GLA inh pH 4.5	Rango complex inh	miR-21 FLuc
CCOC(=O)N1CCN(S(=O)(=O)c2ccc(C(=O)Nc3nnc(C)o3)cc2)CC1
  4%	-3	1.4%	0%
CS(=O)(=O)N1CCSC1c1ccc(Br)cc1 (stereo not given)
  18%	3	-0.3%	-2%
O=C(NCc1ccco1)c1cc2ccccc2o1
  -8%	-19	-1.1%	-20%
O=S(=O)(N/N=C/c1ccc(N2CCOCC2)cc1)c1ccc(Br)cc1
  2%	-1	4.4%	-21%
CCOc1ccc(NC(=S)NCc2ccco2)cc1
  -8%	2	0.2%	-16%
CC(C)Oc1ccc(C(=O)O)cc1
  -12%	-8	0.8%	-3%
O=C(CCCCCNC(=O)c1ccccc1Br)N=Nc1c(O)[nH]c2ccccc12
  -6%	3	0.3%	-8%
CN1CCN(c2ccc(NC(=S)NC(=O)c3cccc4c(Cl)cccc34)cc2)CC1
  26%	·	3.1%	-2%
COc1ccc(NC(=O)CCCSc2ccccc2)cc1S(N)(=O)=O
  -22%	·	-0.2%	-3%
COCCNC(=O)CN1C(=O)CSc2ncccc21
  -12%	2	1.6%	-5%
CC(=O)c1cnc2nc(C(F)(F)F)nn2c1C
  0%	-2	0.0%	-5%
COC(=O)C(CCSC)NC(=O)CNS(=O)(=O)c1ccc(Cl)cc1 (stereo not given)
  2%	10	-1.4%	-4%
Nn1c(SCc2cn3ccccc3n2)nnc1-c1ccncc1
  8%	6	-4.5%	3%
CCOP(=O)(OCC)C(Nc1ccccc1)c1cccnc1 (stereo not given)
  4%	4	0.4%	1%
COc1ccc(C2c3c(ccc4ccccc34)Oc3ncn4nc(-c5ccco5)nc4c32)cc1 (stereo not given)
  8%	0	0.6%	-3%
c1cc2c3c(cccc3c1)NN=N2
  6%	·	-3.2%	·
O=C(NCCc1ccccc1C(F)(F)F)C1CCC(=O)N(C2CC2)C1 (stereo not given)
  0%	·	0.8%	-1%
CCn1c(C)nnc1SCC(=O)Nc1ccc(N2CCOCC2)cc1
  7%	·	0.0%	3%
O=C(CSc1nnnn1-c1ccc(F)cc1)Nc1nc2ccccc2s1
  2%	-23	0.7%	-13%
CCOC(=O)c1c(CC(C)C)csc1NC(=O)c1ccccc1C(=O)O
  0%	-13	0.6%	-1%
CCc1ccc(C(=O)CN2C(=O)C(C)N(c3ccc(C)cc3)C2=O)cc1 (stereo not given)
  -6%	1	-3.9%	-18%
CCC(OC(=O)CN1C(=O)C(=O)c2ccccc21)C(=O)Nc1ccccc1OC (stereo not given)
  3%	·	0.2%	-4%
CC(=O)c1ccc(Cc2ccc(C(C)=O)cc2)cc1
  -13%	8	4.0%	-6%
Cc1onc(-c2ccccc2)c1C(=O)Oc1cccnc1
  -6%	-2	-1.1%	-4%
O=C(COc1ccccc1O)NC1CCCC1
  16%	·	-1.4%	·
Cc1ccc(SCC(=O)NC2CC3CCC(C2)N3C)cc1 (stereo not given)
  -11%	-3	0.1%	-1%
CCCCOC(=O)C(C)Nc1n[nH]c(=S)[nH]c1=O (stereo not given)
  14%	2	-0.8%	-12%
CC1(C)Cc2nc3nc(SCC(=O)NCc4ccccc4)n(-c4ccccc4)c(=O)c3cc2CO1
  ·	9	·	-2%
Cc1ccc(C)c(N=C2NC(=O)CS2)c1
  -14%	-2	-2.9%	0%
COc1ccc(C(=O)C2CCCN(S(=O)(=O)c3cccnc3)C2)c(C)c1 (stereo not given)
  5%	5	4.1%	4%

Three of the compounds above, with values ahead of the structure:
| Rango dissoc inh | GLA inh pH 4.5 | Rango complex inh | miR-21 FLuc | mol |
| --- | --- | --- | --- | --- |
| -8% | 2 | 0.2% | -16% | CCOc1ccc(NC(=S)NCc2ccco2)cc1 |
| 0% | -2 | 0.0% | -5% | CC(=O)c1cnc2nc(C(F)(F)F)nn2c1C |
| -6% | -2 | -1.1% | -4% | Cc1onc(-c2ccccc2)c1C(=O)Oc1cccnc1 |

Continuation.
The line under a structure holds: Rango dissoc inh	GLA inh pH 4.5	Rango complex inh	miR-21 FLuc
CN1CCN(c2ccccc2NC(=O)c2ccc([N+](=O)[O-])o2)CC1
  14%	·	0.9%	11%
Cc1ccc(S(=O)(=O)NCC(=O)N(CC(=O)NCC2CCCO2)c2cccc(F)c2)cc1 (stereo not given)
  7%	·	-4.5%	-2%
Cc1ccc(NC(=O)COC(=O)Cc2ccsc2)cc1S(=O)(=O)N(C)C
  -6%	2	-4.2%	4%
Cc1ccc(NC(=O)CSc2nnc(-c3cc(C)[nH]n3)n2N)cc1
  -1%	·	-1.5%	3%
CC1(C)CC(=O)C([N+](=O)[O-])=C(NCCCO)C1
  19%	6	-2.8%	6%
C[C@@H](C(=O)Nc1ccc2ccccc2c1)[C@H]1C[C@]1(C)[C@H](NC(=O)c1cnccn1)c1ccccc1
  -4%	-7&-14	1.4%	4%
Cc1ccccc1NC(=O)CCC(=O)OCC(=O)c1ccc(-c2ccccc2)cc1
  10%	0	-1.2%	-8%
CCn1c2ccccc2c2nc3ccccc3nc21
  ?	0	?	-29%
CC(=O)N1CCN(c2ccccc2NC(=O)c2ccc(-c3cccc([N+](=O)[O-])c3)o2)CC1
  12%	-9	-0.1%	-1%
Cn1ncc(N)c1C(=O)Nc1cccc(C(F)(F)F)c1
  -1%	7	-1.1%	-15%
CCc1ccc(NC(=O)c2ccc3c(=O)n4c(nc3c2)CCCCC4)cc1
  3%	0	4.0%	19%
O=C(COC(=O)c1cccc(O)c1)Nc1ccc(OC(F)F)cc1
  -11%	-3	1.8%	0%
O=C(Nc1nc2c(F)cc(F)cc2s1)c1ccccn1
  12%	-7	-10%	22%
CCOP(=O)(OCC)C(Nc1cccc([N+](=O)[O-])c1)c1ccccc1 (stereo not given)
  8%	?	0.9%	-1%
CCOc1ccccc1-c1nnc(SCC(=O)NC2(C#N)CCCC2)o1
  ?	·	1.4%	·
Cc1ccccc1N1CCN(CCN2C(=O)CC(=C3c4ccccc4-c4ccccc43)C2=O)CC1
  2%	·	-0.7%	·
[O-]/C(=C(\C(=S)NCc1ccc2c(c1)OCO2)[n+]1ccccc1)c1ccc(Cl)s1
  -3%	-6	-5.2%	-5%
CCN(C(=O)CSc1nc2ccc(Cl)cc2[nH]1)C1CCS(=O)(=O)C1 (stereo not given)
  17%	·	2.2%	·
CCOc1ccccc1C(=O)NCC(=O)NCCCc1ccccc1
  6%	4	0.2%	-11%
CN1CCN(C(=O)c2cc(-c3ccco3)on2)CC1
  -13%	5	-1.3%	-29%
O=C(CO/N=C/c1ccc(OC(F)F)cc1)NCc1ccc(F)cc1
  4%	-22	0.4%	3%
COc1ccccc1C(=O)N/C(N)=N/c1nc2ccccc2o1
  -12%	-4	0.1%	-26%
CCOC(=O)N1CCC(N2CCN(Cc3ccc(F)c(F)c3)C(CCO)C2)CC1 (stereo not given)
  -1%	5	-1.5%	-2%
CCOC(=O)N1CCN(C(=S)Nc2ccccc2C(C)C)CC1
  -18%	3	0.9%	0%
COc1ccc(NC(=S)N2CCC(c3ccccc3)C2)cc1 (stereo not given)
  -5%	·	1.4%	-61%
CCN(CC)CCNCC(=O)N1c2ccccc2CCc2ccc(NC(=O)OC)cc21
  8%	·	4.3%	-6%
Cc1ccccc1C(=O)NC(CC(C)C)C(=O)OCC(=O)c1c(N)n(C)c(=O)n(C)c1=O (stereo not given)
  -6%	0	1.5%	0%
COC(=O)CSc1nnc(-c2ccoc2C)n1-c1ccc(OC)cc1
  8%	-1	-0.2%	1%
CC1CCC(C(=O)NC(C(=O)Nc2ccccn2)C(C)C)CC1 (stereo not given)
  10%	·	0.3%	-2%
CCCC(=O)c1cc2ccccc2oc1=O
  -3%	-1	-7.0%	-9%

Screening results from PubChem.

Only part of the results is shown. The share of hits here may be higher or lower than overall.
